Compound activity from PubChem BioAssay.
HTT prom inh – inhibits huntingtin promoter activity; HEK293 HTT promoter firefly luciferase reporter (activity 0% = vehicle and -100% = no light), 24 h; Potency, µM (doses to about 57.5 µM), without a hit: at the top dose activity change, negative = inhibition, actives largely listed as inhibitors; hit rate 0.93% among 48,000; active = well fitted inhibition curve with a large enough effect; inconclusive = small, poorly fitted or top-dose-only effect; inactive = no such curve, though single readings can be large or run the other way; note: nearly all actives have a fitted effect of over 50% in size
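Firefly luciferase signal from promoter-reporter HEK293 cells was scaled between vehicle (0%) and zero RLU (-100%). Compounds were tested at final concentrations of up to 57.5 uM over 24 h at 37 degrees C. PTC124 at 50 uM final served as control inhibitor.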
PMP22 txn – modulates PMP22 transcription in S16 Schwann cells; Potency, µM (highest dose often 57.5 µM), for inactives: top-dose activity change, negative = inhibition, hits mostly inhibitors; S16 Pmp22-F2sN Schwann cells (luciferase reporters placed in the Pmp22 gene), FLuc/NLuc coincidence luminescence, 24 h; hit rate 2% among 43,000; AID 1508649; active = clear falling dose curves in both reporters; inconclusive = both reporters move, but less clearly or upward; inactive = either reporter flat; the % is the NLuc reporter signal; note: % is set by controls: 0 for no effect and ±100 for the full control effect; some results filed as inactive show a strong effect at the top dose
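Reporter cells (S16 Pmp22-F2sN, 500–1,000 per well) exposed to compounds for 24 h, 37C, 5% CO2; lysis with FLuc read after 10 min, then Stop&Glo and NLuc read after 10 min.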
Starred values were filed as active, the others as inactive; ? = inconclusive; · = not tested or not shown; & = joins results of further samples; [ ] = dose if it differs, or a comment. Potency is the fitted concentration of half-maximal effect.

mol	HTT prom inh	PMP22 txn
COCCn1c(C)cc(O)c(C(c2cccc(F)c2)N2CCN(c3ccccc3)CC2)c1=O (stereo not drawn)	-13.2%	14.2%
Cn1c(=O)oc2cc(S(=O)(=O)Nc3ccccc3O)ccc21	-10.5%	-7.4%
CC1=C(C(=O)Nc2ccc(C)cc2C)C(c2ccc(O)cc2)n2nc(SCC(=O)c3ccc(C)cc3)nc2N1 (stereo not drawn)	-8.7%	-12.1%
COc1cc(OC)c(NC(=O)Nc2cc(C)on2)cc1Cl	9.9%	·
CCOc1ccc(Nc2sc(C(=O)c3ccc4c(c3)OCO4)c(N)c2S(=O)(=O)c2ccc(C)cc2)cc1	-27.4%	-3.3%
COc1ccc(CCNC(=O)c2cc3sccc3n2Cc2ccc(Cl)cc2)cc1OC	?	?
COc1ccc(N2CCN(S(=O)(=O)CCNC(=O)c3cc(=O)c4ccccc4o3)CC2)cc1	-21.5%	3.4%
CC(C)N(CCCNC(=O)Nc1ccc(C(C)(C)C)cc1)C[C@H]1O[C@@H](n2cc(Br)c3c(N)ncnc32)[C@H](O)[C@H]1O	?	·
CCOc1ccccc1NC(=O)N1CCC(N2CCN(Cc3ccccc3)C(=O)C2=O)CC1	-11.3%	-0.2%
Cc1ncc(COP(=O)(O)O)c(C=O)c1O	11.9%	·

(cont.)
mol	HTT prom inh	PMP22 txn
CCOc1ccc(S(=O)(=O)c2cn(Cc3cc(C)ccc3C)c3ccc(OCC)cc3c2=O)cc1	-13.3%	-12.0%
CCOC(=O)N1c2ccc(C(F)(F)F)cc2[C@@H](N(Cc2cc(C(F)(F)F)cc(C(F)(F)F)c2)C(=O)OC)C[C@H]1CC	-31.2%	·
Cc1ccc(C)c(-c2[nH]c3c(c2-c2c(-n4cccc4)n(C)c(=O)[nH]c2=O)c(=O)[nH]c(=O)n3C)c1	-10.0%	-31.1%
Cc1c(C)n(Cc2ccccc2)c2ccc(C(=O)NCc3ccc(OC(C)C)cc3)cc12	-15.6%	?
COc1ccc(NC(=O)c2ccc3nc(CCc4ccccc4)oc3c2)c(OC)c1	36.9%[activator]	-19.6%
COc1ccc(NC(=O)CC2C(=O)N(c3ccc(OC)cc3)C(=O)N2Cc2ccc(OC)c(OC)c2)cc1 (stereo not drawn)	0.3%	12.7%
COCCCNC(=O)C1CCN(Cc2cc3ccccc3n2Cc2cccc(C)c2)CC1	-13.3%	?
COc1ccc(C2C(C(=O)Nc3ccccc3)=C(C)Nc3nc(SCC(=O)c4ccc(C)cc4)nn32)cc1 (stereo not drawn)	2.2%	2.4%
CCNS(=O)(=O)c1cc(-c2nnc(Nc3cccc(C(F)(F)F)c3)c3ccccc23)ccc1C	?	-30.1%
N#Cc1ccc(C(=O)Nc2ccc3c(c2)N(C2CCCC2)C(=O)c2ccccc2S3)cc1	-28.2%	21.2%

(list continues)
mol	HTT prom inh	PMP22 txn
CCc1ccc(-c2nc(SCC(=O)NCCOC)c(-c3ccc(C)cc3)[nH]2)cc1	-21.4%	5.1%
Cc1ccc(-n2c3c(cc(C(=O)Nc4ccccc4C(N)=O)c2=O)C(=O)CC(C)(C)C3)cc1	-20.1%	3.4µM*
O=C(NCc1ccccc1)C1CCN(c2ncnc3c2nc2n3CCCCC2)CC1	1.1%	-2.4%
CCc1ccc(-c2nc(CN3CCC(C(=O)NCCc4ccc(C)cc4)CC3)c(C)o2)cc1	-1.4%	?
CCCC(=O)Nc1nnc(S(=O)(=O)N(C)Cc2ccc(Cl)cc2)s1	4.7%	23.9%
Cc1cc2c(cc1C)C(c1cccc(OC(C)C)c1)CC(=O)N2 (stereo not drawn)	?	?
Cc1c(CCNC(=O)Cc2ccc(F)cc2)sc2nc(-c3ccc(F)cc3)nn12	?	-9.3%
COc1ccc(N2CCN(CC(O)COc3c(OC)cccc3OC)CC2)cc1 (stereo not drawn)	?	-9.0%
Cc1ccc(SCCNC(=O)CN(c2cccc(C)c2C)S(C)(=O)=O)cc1	?	-24.8%
Cc1ccccc1CCNC(=O)c1ccc2c(c1)c(C)c(C)n2C	28.9%	-1.7%

A second format for part of the listing above.
CCOC(=O)N1c2ccc(C(F)(F)F)cc2[C@@H](N(Cc2cc(C(F)(F)F)cc(C(F)(F)F)c2)C(=O)OC)C[C@H]1CC
- HTT prom inh: -31.2%
- PMP22 txn: ·

CCOc1ccccc1NC(=O)N1CCC(N2CCN(Cc3ccccc3)C(=O)C2=O)CC1
- HTT prom inh: -11.3%
- PMP22 txn: -0.2%

Continued.
mol	HTT prom inh	PMP22 txn
Cc1cccn2c3c(c(=O)nc12)C(c1ccc(F)cc1)CC(=O)N3 (stereo not drawn)	-15.3%	22.8%
Cc1ccccc1NC(=O)c1ccc(F)c(S(=O)(=O)NC2CCCC2)c1	-37.2%	-1.1%
CCC1CN(C(=O)C2CCN(S(=O)(=O)c3c(C)noc3/C=C/c3ccccc3F)CC2)c2cc(C)ccc2O1 (stereo not drawn)	-26.1%	-7.8%
COc1ccc(CNc2ncnc3c2c(-c2ccccc2)cn3-c2ccc(C)c(Cl)c2)cc1	?	13.3%
COc1ccccc1CNC(=O)c1cc(S(=O)(=O)N2CCCC(C)C2)cn1C (stereo not drawn)	-29.0%	-24.2%
CC(=O)c1ccc(N2CCN(C(=O)c3cc(S(=O)(=O)N4CCCCCC4)cn3C)CC2)cc1	-23.9%	?
Cc1cccc(OC(=O)c2snnc2C)c1	-2.6%	?
COc1ccc(-c2cc(=O)n3[nH]cnc3n2)cc1	15.0%	38.8%
COc1ccccc1NC(=O)Cn1c(=O)n(Cc2nc(-c3ccccc3)no2)c(=O)c2ccccc21	-21.0%	23.8%
O=C(O)c1cccnc1SCc1cccc(Cl)c1	0.2%	7.5%

The list continues.
mol	HTT prom inh	PMP22 txn
CCOCCOC(=O)c1ccc2c(c1)N(Cc1ccccc1C#N)C(=O)c1ccccc1S2(=O)=O	-8.6%	10.5%
COc1ccc(Cl)cc1C(=O)NCCc1ccc(S(=O)(=O)NC(=O)NC2CCCCC2)cc1	-12.3%	·
COc1ccc(N(CC(=O)N2CCN(c3cc(C)ccc3C)CC2)S(=O)(=O)c2c(C)noc2C)cc1	-6.5%	?
CCc1ccc2c(c1)c(=O)c(C(=O)c1ccc(C)cc1)cn2CC(=O)Nc1ccc2c(c1)OCCO2	-16.9%	-21.8%
Cc1ccc(C)c(N2CCN(c3ncnc4onc(C)c34)CC2)c1	?	?
Cc1ccc2nc(Cl)c3cc(C(=O)N4CCCC(C)C4)sc3c2c1 (stereo not drawn)	-21.3%	?
CCc1nn(CC(=O)NCc2ccccc2)c(=O)c2cccn12	-4.8%	8.7%
CCc1ccc(OCC(=O)Nc2cc(-c3nc4cc(C)ccc4o3)ccc2C)cc1	-2.2%	?
Cc1ccc(CCNC(=O)C(NS(=O)(=O)c2ccc3c(c2)oc(=O)n3C)C(C)C)cc1 (stereo not drawn)	-15.0%	8.7%
O=C(COc1ccccc1F)Nc1nnc(S(=O)(=O)N2CCCCCC2)s1	-19.4%	-4.4%

Further structures follow:
mol	HTT prom inh	PMP22 txn
Cc1c(C(=O)N(Cc2cccc(Cl)c2)Cc2ccco2)oc2ccccc12	-17.0%	3.8%
CCn1cc(C(=O)N2CCN(c3cccc(C)c3C)CC2)c2cc(OC)c(OC)cc2c1=O	-15.5%	?
Cc1cccc(C)c1NS(=O)(=O)c1ccc(NS(=O)(=O)c2ccc3c(c2)OCCO3)cc1	-23.0%	0.2%
CCCNC(=O)N1CCN(S(=O)(=O)c2ccc3c(ccn3C)c2)CC1	-42.6%	-23.6%
O=C(Nc1nnc(-c2ccco2)o1)c1cc(-c2ccccc2)nc2ccccc12	-10.0%	·
CCCCN(CC)CCNC(=O)c1nn(-c2ccc(OC)cc2)c(=O)c2c1c1ccccc1n2C	-14.8%	-18.2%
Cc1ccc(Sc2ccc(N3CCCC(C(=O)Nc4ccc(F)cc4)C3)nn2)cc1 (stereo not drawn)	-25.6%	-23.4%
O=C(CSc1nnc(-c2ccccc2)c(-c2ccccc2)n1)NCCc1ccccc1	-5.7%	26.9%
Cc1ccccc1NS(=O)(=O)c1ccc2[nH]cc(C(=O)NC(C)c3ccccc3)c(=O)c2c1 (stereo not drawn)	?	-26.2%
Cc1ccc(-c2cc3c(n2-c2ccc(F)cc2)CC(C)(C)CC3=O)cc1	-4.0%	3.3%

Other compounds
mol	HTT prom inh	PMP22 txn
Cc1ccc(C)c(NC(=O)C(C)N(c2ccccc2)S(C)(=O)=O)c1 (stereo not drawn)	-11.4%	-9.7%
COc1ccccc1CNC(=O)C1CCN(C(=O)c2sccc2-n2cccc2)CC1	-28.1%	-12.3%
O=C(CSc1nc(=O)n(CCN2CCOCC2)c2c1CCC2)Nc1cccc(Cl)c1	?	?
Cc1cc(C)c(NC(=O)Cn2nnc(S(=O)(=O)c3ccc(C)c(C)c3)c2N)c(C)c1	-21.3%	1.6%
O=C(CN1C(=O)COc2ccc(S(=O)(=O)N3CCCCCC3)cc21)NCc1ccc(Cl)cc1	?	7.1%
Cc1ccc2c(c1)C(c1ccccc1)N(C(=O)c1ccc(S(=O)(=O)N3CCCC3)cc1)CC(=O)N2 (stereo not drawn)	-25.8%	?
O=C(CN1C(=O)c2cccnc2Oc2ccc(Cl)cc21)NCCCN1CCCCC1	2.0%	5.5%
COc1ccc(N2CCN(C(=O)c3ccc4c(c3)N(Cc3cccc(Cl)c3)C(=O)c3ccccc3S4(=O)=O)CC2)cc1	-8.8%	-151.9%
O=C(c1ccccc1Cl)N1CCN(CCc2ccccn2)CC1	-12.4%	-4.1%
CCS(=O)(=O)c1ncc(Cl)c(C(=O)Nc2c(C(=O)Nc3cccc(C)c3)oc3ccccc23)n1	6.4%	3.18µM*

(list continues)
mol	HTT prom inh	PMP22 txn
CCOc1ccc(Nc2nc(-c3cccc(Cl)c3)c3c(n2)-c2ccccc2OC3)cc1	-9.4%	-3.6%
CCOc1ccc(NC(=O)CSC2=Nc3ccccc3C3=NC(CC(=O)NCc4ccco4)C(=O)N23)cc1 (stereo not drawn)	-13.9%	?
Cc1ccc(C(=O)c2oc3ccccc3c2NC(=O)Cc2ccccc2)cc1	-4.6%	22.4%
COc1cccc(-n2cc(C(=O)NCc3ccccc3OC)c3ccccc3c2=O)c1	-10.8%	5.5%
CCc1ccc(OCC2c3cc(OC)c(OC)cc3CCN2C(=O)Cc2ccc(OC)c(OC)c2)cc1 (stereo not drawn)	?	?
Cc1ccc(CN2C(=O)C3(c4ccccc42)N(c2cccc(F)c2)C(=O)CS3(=O)=O)cc1 (stereo not drawn)	?	-15.2%
CC(=O)c1ccc(N2CCN(C(=O)c3cc4ccc5cccnc5c4[nH]3)CC2)cc1	-0.4%	-46.8%
Cc1ccc(OCc2ccc(-c3nc(C#N)c(NCc4ccccc4Cl)o3)o2)cc1	?	?
C[C@@]1(C(=O)Nc2ccc(F)nc2)CCCN1c1nc(Nc2cc(C3CC3)[nH]n2)c2cccn2n1	?	·
COc1ccc(NC(=O)Cc2ccc(NC(=O)N3CCCCc4ccccc43)cc2)c(OC)c1	?	-11.6%

Brought forward from above: three compounds; new compounds follow.
mol	HTT prom inh	PMP22 txn
Cc1ccc(OCc2ccc(-c3nc(C#N)c(NCc4ccccc4Cl)o3)o2)cc1	?	?
C[C@@]1(C(=O)Nc2ccc(F)nc2)CCCN1c1nc(Nc2cc(C3CC3)[nH]n2)c2cccn2n1	?	·
COc1ccc(NC(=O)Cc2ccc(NC(=O)N3CCCCc4ccccc43)cc2)c(OC)c1	?	-11.6%
COc1ccc(NC(=O)Cn2cc(S(=O)(=O)Cc3ccc(F)cc3)c3ccccc32)cc1OC	?	-42.3%
CN(Cc1ccccc1)c1nc(-c2ccc(F)cc2)cc(C(F)(F)F)n1	-17.7%	-0.8%
NC(N)=NC(N)=NCCc1ccccc1	-16.9%&-4.2%	·
CC1=C(c2ccc(C)c(C)c2)S(=O)(=O)N=C1N1CCN(c2cccc(C)c2)C(C)C1 (stereo not drawn)	-22.5%	?
CCOC(=O)c1c(NC(=O)/C=C/c2ccc(OC)c(OC)c2)sc(C(C)=O)c1C	-7.9%	-5.7%
Cc1ccccc1CNC(=O)C(C)N(c1ccccc1)S(C)(=O)=O (stereo not drawn)	-10.2%	0.5%
CCCNC(=O)C1CCC(Cn2c(=O)c3sccc3n(Cc3ccccc3F)c2=O)CC1 (stereo not drawn)	2.4%	?
CCc1ccccc1Nc1nc2ccccc2c2nncn12	-24.4%	0.0%
CCCCNC(=O)C1CCN(S(=O)(=O)c2ccc3c(ccn3CC)c2)CC1	-10.5%	13.3%
Cc1cc(N2CCCCC2)nc2ccc(NC(=O)c3cccc(Cl)c3)cc12	-20.4%	?

Continuation.
mol	HTT prom inh	PMP22 txn
Cc1ccc2[nH]c3c(=O)n(CC(=O)N4CCCC(C)C4)ncc3c2c1 (stereo not drawn)	0.9%	-22.1%
CCC1CCc2nc3sc(C(=O)Nc4ccc(F)c(F)c4)c(N)c3cc2C1 (stereo not drawn)	12.9%	-2.8%
COc1ccc2c(c1)c1c(c(=O)n(-c3cccc(C)c3)c(=O)n1Cc1cccc(Cl)c1)n2C	-13.2%	?
Cc1cc2oc(C(=O)N(Cc3ccccc3)C3CCS(=O)(=O)C3)cc(=O)c2cc1C (stereo not drawn)	-11.3%	?
